High-throughput results from PubChem.
FEN1 inh: inhibitors of human flap endonuclease 1; P39748; Recombinant FEN1 flap cleavage, fluorescence, 15 min; Potency, µM (series often up to 114 µM), for inactives: at the highest dose activity change, negative = inhibition, actives largely listed as inhibitors; hit rate 0.35% among 390,000; further: nearly all actives have a fitted effect of over 65% in size
Target sequence (P39748 whole entry, looked up): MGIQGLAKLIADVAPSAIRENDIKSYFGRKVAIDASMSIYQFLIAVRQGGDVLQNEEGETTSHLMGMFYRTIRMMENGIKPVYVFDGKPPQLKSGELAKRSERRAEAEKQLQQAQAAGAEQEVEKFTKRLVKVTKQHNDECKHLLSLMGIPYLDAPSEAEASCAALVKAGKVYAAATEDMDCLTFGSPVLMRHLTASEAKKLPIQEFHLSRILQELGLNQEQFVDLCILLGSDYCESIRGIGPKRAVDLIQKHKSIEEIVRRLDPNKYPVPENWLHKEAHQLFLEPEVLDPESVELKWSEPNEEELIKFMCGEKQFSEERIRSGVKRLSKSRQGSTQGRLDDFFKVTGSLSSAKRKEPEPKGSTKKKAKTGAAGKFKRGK
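Reaction started by adding substrate (50 nM final) to 10 nM enzyme after 15 min room-temperature compound preincubation. Reads at 0 and 15 min, with data normalized and fitted to a four-parameter Hill equation.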
KAT2A inh: GCN5L2 (KAT2A) acetyltransferase inhibition | Q92830 | AID 504327 | GCN5L2 HAT assay, ThioGlo1 CoA-SH fluorescence | hit rate 0.21% among 390,000 | Potency, µM (titrated, usually from 58.9 µM), without a hit: at the top dose activity change, negative = inhibition, usual class: inhibitors
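GCN5L2 (20 nM) in 50mM HEPES pH 7.5, 0.1mM EDTA, 0.01% Tween-20 preincubated 15 min with compounds at room temperature. Reaction started with H3(1-25) 75uM, acetyl-CoA 70uM, ThioGlo1 50uM; CoA-thiol fluorescence (Ex340/Em540) read at 0 and 20 min.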
Active calls of the source: *; ? = inconclusive; . = not tested or not shown; & = joins results of further samples; [ ] = remark or other dose. The call rests on the fitted dose curve; in most records, active means well fitted curve in the direction sought with a large enough effect; inconclusive means small, poorly fitted or top-dose-only effect, or another doubt; inactive means no such curve, though single readings can be large; an effect the other way counts as inactive or inconclusive. On the % scale 0 is the no-effect control and ±100 the full control effect; potency means the concentration at half of the fitted maximal effect. A portion of the library, and most or all hits are left out here.

Start of the listing, in advance:
SMILES	FEN1 inh	KAT2A inh
O=C(/C=C/c1cccs1)Nc1ccc(N2CCOCC2)c(S(=O)(=O)Nc2ccccc2Cl)c1	-12%	-14%
COc1ccc2[nH]c(=O)c(CN(C(=O)c3cccnc3)c3ccccc3C)cc2c1	3%	-3%
O=S(=O)(c1ccc(Br)cc1)c1nc(-c2ccco2)oc1NCC1CCCO1 (configuration not stated)	-1%	-16%
O=C(O)c1ccc(-n2nnnc2Oc2ccccc2C(=O)N2CCOCC2)cc1	7%	-10%
COC(=O)C(NC(=O)c1ccccc1)=C(C)C	1%	-6%

The listing, from the start:
SMILES	FEN1 inh	KAT2A inh
O=C(/C=C/c1cccs1)Nc1ccc(N2CCOCC2)c(S(=O)(=O)Nc2ccccc2Cl)c1	-12%	-14%
COc1ccc2[nH]c(=O)c(CN(C(=O)c3cccnc3)c3ccccc3C)cc2c1	3%	-3%
O=S(=O)(c1ccc(Br)cc1)c1nc(-c2ccco2)oc1NCC1CCCO1 (configuration not stated)	-1%	-16%
O=C(O)c1ccc(-n2nnnc2Oc2ccccc2C(=O)N2CCOCC2)cc1	7%	-10%
COC(=O)C(NC(=O)c1ccccc1)=C(C)C	1%	-6%
COC(=O)c1cc(OC)c(OC)cc1NC(=O)c1csc(C)c1	12%	0%
CCCNC(=O)CCC(NS(=O)(=O)c1ccc(C)cc1)C(=O)NCCC (configuration not stated)	-2%	0%
CCCc1[nH]nc2c1C1(CCN(C(=O)OCc3ccccc3)CC1)C(C#N)=C(N)O2	0%	-12%
COc1ccc(C(=O)NCCSc2ccccc2)cc1OC	3%	-1%
COc1ccccc1CN(C)C(=O)c1sccc1-c1ccccc1	6%	-7%
COc1ccc(N2CC(O)=C(c3nc(-c4ccc(F)cc4)cs3)C2=N)cc1OC	-14%	-11%
CCC(c1nnnn1CCOC)N1CCN(Cc2ccccc2OC)CC1 (configuration not stated)	16%	-1%
CC(C)(C)C(=O)Nc1cc2c3c(c1)CCC(=O)N3CCC2	-8%	-3%
CCCNC(=O)c1nn2c(C(F)(F)F)cc(-c3ccccc3)nc2c1Br	-18%	-2%
O=c1[nH]c(=O)n(C2CCCO2)cc1F (configuration not stated)	11%	-2%&-25%&-5%
COc1c(C(=O)Nc2nccs2)ccc2ccccc12	4%	-9%
CCN(CC)S(=O)(=O)c1ccc(OC)c(NC(=O)c2cc3c(=O)n4ccccc4nc3s2)c1	13%	-9%
Cc1cccnc1NC(=O)c1ccc([N+](=O)[O-])o1	5%	-4%
Cc1ccc2nsnc2c1S(=O)(=O)N1CCOCC1	-2%	7%
COc1ccc(NC(=O)CSc2nc3nc(C)cc(C)c3c(=O)[nH]2)cc1	0%	?
Cc1sc(NC(=O)CSc2nnnn2C2CCCC2)c(C#N)c1C	7%	3%
Clc1ccc(CONc2ncnc3nonc23)c(Cl)c1	-14%	-4%
COc1ccc(C(=O)N2CCN(CCNC(=O)C(=O)Nc3ccc(Br)cc3)CC2)cc1	-2%	-11%
COc1ccnc(-n2cccc2C#N)c1C#N	-11%	-7%

Some values from the list.
O=S(=O)(c1ccc(Br)cc1)c1nc(-c2ccco2)oc1NCC1CCCO1 (configuration not stated) in KAT2A inh is entered as -16%
COc1ccc2[nH]c(=O)c(CN(C(=O)c3cccnc3)c3ccccc3C)cc2c1 in KAT2A inh is entered as -3%

Additional results
SMILES	FEN1 inh	KAT2A inh
Nc1nnc(SCc2cccnc2)s1	-3%	-23%
COc1cc2[nH]c(=O)c(C(=O)NCc3ccc(F)cc3)c(O)c2cc1OC	-1%	-11%
COCC(=O)N(Cc1cc2cc(OC)ccc2[nH]c1=O)c1ccccc1	-10%	-4%
CCn1nnnc1SCC(=O)c1ccc2c(c1)OCCO2	6%	-8%
O=C(c1cccc(F)c1)N1CCC(N2CCCCCC2)CC1	0%	-4%
COc1ccc(NC(=O)C2CCN(c3nnnn3-c3ccccc3)CC2)cc1	7%	-4%
CN(C(=O)COC(=O)c1cccc(F)c1)c1ccccc1	7%	-3%
CCOc1nc(C)ccc1-c1noc(-c2cccnc2)n1	6%	1%
COc1cc(/C=C/C(=O)OCC(=O)NCc2ccco2)cc(OC)c1OC	-7%	-3%
CCOC(=O)Cn1c(=O)c2c(nc(N3CCCCC3)n2C)n(C)c1=O	0%	2%
Cc1ccc(C)c(S(=O)(=O)N/N=C2/CCCc3ccccc32)c1	?	-9%
O=S(=O)(NCc1cccnc1)c1ccc(Cl)nc1	5%	-15%
O=C(NCCN1CCN(c2ccccc2)CC1)Nc1cccc(Br)c1	16%&-8%	0%&-7%
Cc1ccc(S(=O)(=O)NCC(=O)N/N=C/c2ccc(Cl)cc2)cc1	2%	-2%
Nc1nc2n(n1)C(c1ccc(F)cc1)CC(c1ccc(F)cc1)N2 (configuration not stated)	15%	-5%
Cc1ccc(C(=O)Nc2ncccc2O)o1	11%	-7%
CC(C)CC(O)(CC(C)C)C(=O)NNc1ccccc1	-10%	-3%
Cc1cc(C(=O)c2ccc(C(C)(C)C)cc2)c(NC(=O)CCl)s1	-15%	-12%
Cc1ccc(-n2ncc(C(=O)NC3CC3)c2C2CCN(C(=O)OC(C)(C)C)CC2)cc1	17%	-6%
COc1ccc(N2C(=O)CSC2c2ccncc2)cc1 (configuration not stated)	-8%	0%
O=C(OCn1ncc(Cl)c(Cl)c1=O)c1ccc(F)cc1	.	-4%
CC(NC(=O)Cc1cccs1)c1ccncc1 (configuration not stated)	-2%	-7%
CN(C)N=Nc1ccc(S(=O)(=O)NC(=O)Cc2ccccc2)cc1	1%	-7%
CCOc1ccccc1CNn1nnnc1N	-15%	3%
CCC(Oc1cc(Cl)ccc1Cl)C(=O)NNC(=O)CCC(=O)O (configuration not stated)	14%	-1%
CCOc1ccccc1CNC(c1ccccc1)c1ccccc1	-22%	?
COc1ccc(NC(=O)Nc2cc(C(=O)O)ccc2N2CC3CC(C2)c2cccc(=O)n2C3)c(OC)c1 (configuration not stated)	-2%	-15%
Cc1ccc2nc3c(c(C(=O)OCC(=O)N(C)C4CCS(=O)(=O)C4)c2c1)CCCC3 (configuration not stated)	2%	-7%
CC(=O)c1c(C)oc2ccc(N(C(C)=O)S(=O)(=O)c3ccc(F)cc3C)cc12	-1%	-19%
O=S(=O)(NC1CCCCC1)c1cccs1	0%	3%
Cc1cc(NC(=O)CSCc2nc(-c3cccc(Cl)c3)oc2C)no1	20%	-1%
NC(=O)C1CCN(C(=O)COc2ccc3c(c2)oc(=O)c2ccccc23)CC1	-9%	0%
CC(C)C[C@@H](CO)N1CCN(C)CCC1=O	-5%&1%	2%
N#Cc1sc2nc(C3CC3)cc(-c3ccc(Cl)cc3)c2c1N	-9%	-20%
COc1ccccc1NC(=O)C1CCN(C(=O)c2ccc(C(C)(C)C)cc2)CC1	1%	0%
FC(F)(F)c1cccc(Cc2noc(CN3C[C@@H]4CCC[C@H]3C4)n2)c1	10%	-2%
COC(=O)c1c(NC(=O)c2c(C)noc2C)sc2c1CCCCCC2	.	-8%
Cc1ccc(N2CC(C(=O)OCc3ccccc3)CC2=O)cc1 (configuration not stated)	-1%	0%
O=c1c2c3c(sc2nc2n1CCCC2)CCCCC3	1%	-6%
CCOC(=O)c1ccccc1NC(=O)CSc1cccc[n+]1[O-]	-5%	0%
COc1ccc(OC)c(Nc2nc(NCCC(C)C)nc(N)c2[N+](=O)[O-])c1	-10%	4%
CCn1c(COC(=O)CNC(=O)c2cc(OC)c(OC)c(OC)c2)nc2cc(S(=O)(=O)N(C)C)ccc21	-3%	2%
O=C(NC1CCN(C(=O)Nc2ccccc2Cl)CC1)c1ccco1	-4%	-1%
CCOC(=O)N1CCC(Nc2c(NCCN3CCN(c4ccccc4F)CC3)c(=O)c2=O)CC1	15%&-1%	-4%
Cc1nc(-c2ccncc2)sc1C(=O)Nc1ccc(Cl)cc1	-5%	2%
CC(C)C(=O)NN1c2ccccc2CCc2ccccc21	6%	-1%
CSc1sc(C(=O)NNC(C)=O)c2c1C1(CCC2)SCCS1	-16%	-2%
Cc1cc(C)nc(N2CCN(S(=O)(=O)c3ccc(F)cc3)CC2)n1	-6%	0%
Cc1ccccc1NC(=S)N/N=C/C(C)c1ccccc1 (configuration not stated)	-3%	-7%
COc1ccc(NC(=O)N2CCCC3(CCN(C(=O)c4cccc(F)c4)CC3)C2)cc1	.	12%
Cc1ccc2sc(C)[n+](CCC(C)S(=O)(=O)[O-])c2c1 (configuration not stated)	-3%	-5%
COc1ccccc1NC(=O)CN(c1ccccc1OC)S(=O)(=O)c1ccccc1	-16%	-7%
O=C(O)c1ccc(/C=N/NC(=O)C2CC2(c2ccccc2)c2ccccc2)cc1 (configuration not stated)	.	-4%
CC(=O)OCC(=O)C1(O)CCC2C3CCC4=CC(=O)C=CC4(C)C3C(=O)CC21C (configuration not stated)	-9%	.
CCCNC(=O)NC(=O)CSc1ncc(C(F)(F)F)cc1Cl	1%	-1%
COc1ccc(S(=O)(=O)NCc2ccccn2)cc1NC(=O)c1ccccc1	15%	-4%
COc1ccc(Cl)c(OC)c1C(=O)NC(=O)Nc1c(F)cc(F)cc1F	-12%	1%
c1ccc2cc3c(NCCN4CCOCC4)ccnc3cc2c1	18µM*	-14%
O=C(Cc1cccc2ccccc12)NCCc1ccccc1	-6%	-7%
O=C(Cn1cnc2c(cnn2-c2ccc(F)cc2)c1=O)NCC1CCCO1 (configuration not stated)	-10%	0%

Part of the list above in order of SMILES length, falling.
SMILES	FEN1 inh	KAT2A inh
CC(=O)OCC(=O)C1(O)CCC2C3CCC4=CC(=O)C=CC4(C)C3C(=O)CC21C (configuration not stated)	-9%	.
COc1ccccc1NC(=O)CN(c1ccccc1OC)S(=O)(=O)c1ccccc1	-16%	-7%
COc1ccc(S(=O)(=O)NCc2ccccn2)cc1NC(=O)c1ccccc1	15%	-4%
c1ccc2cc3c(NCCN4CCOCC4)ccnc3cc2c1	18µM*	-14%
O=C(Cc1cccc2ccccc12)NCCc1ccccc1	-6%	-7%

(further entries)
SMILES	FEN1 inh	KAT2A inh
Cc1nn(-c2ccccc2)c2c1C(c1cccnc1)N1C=C(S(=O)(=O)N3CCCCC3)C=CC1=N2 (configuration not stated)	-10%	-7%
Cc1cc2ncn(C3CC(=O)N(Cc4ccccc4)C3=O)c2cc1C (configuration not stated)	7%	-4%
CCN(C(=O)c1ccc(S(=O)(=O)N2CCOCC2)cc1)C1CCS(=O)(=O)C1 (configuration not stated)	9%	-3%
CCCCOP(=O)(c1ccc(N(C)C)cc1)C(O)c1cc(OC)c(OC)c(OC)c1 (configuration not stated)	6%	0%
Cc1cccc(C(=O)NNC(=O)c2ccc(S(=O)(=O)N3CCOCC3)cc2)c1	1%	-5%
COc1ccc(S(=O)(=O)NCCSc2ccc(C)cc2)cc1OC	-8%	-1%
Cc1ccc(S(=O)(=O)N2CCc3ccccc3C2)cc1	-20%	-15%
COC(=O)CC1C(=O)NCCN1C(=S)Nc1cccc(C)c1 (configuration not stated)	20%	1%
Fc1ccc(COc2cccc(-c3n[nH]c(=S)o3)c2)cc1	-15%	-10%
Cc1ncc(CSCC(=O)Nc2cc(C(F)(F)F)ccc2Cl)c(CO)c1O	13%	0%
COc1ccc(S(=O)(=O)N2CCN(c3ccccn3)CC2)cc1OC	-15%	.
CN(c1cccc(NC(=O)c2ccc(Cl)c(S(=O)(=O)N3CCOCC3)c2)c1)S(C)(=O)=O	0%	-28%
COc1ccc(OC)c(NC(=O)c2cn(C)c(=O)c3cc(OC)c(OC)cc23)c1	-4%	-8%
COc1ccc(OC)c(C2C(C(=O)c3ccccc3)=C(C)Nc3nc4ccccc4n32)c1 (configuration not stated)	4%	2%
Cc1ccc(OCC(=O)N(Cc2ccco2)C2CCS(=O)(=O)C2)cc1 (configuration not stated)	-1%&7%	0%&3%
O=[n+]1c2c(n([O-])c3c1CCC3)CCCC2	-3%	-10%
CCCCC(=O)Nc1ccc2c3c(cccc13)C(=O)N2CC	7%	-9%
CCN(CC(=O)NC1CCS(=O)(=O)C1)C(=O)COc1ccccc1-c1ccccc1 (configuration not stated)	9%	2%
CCCC(=O)Nc1nn(CC(C)C)c2nc3cc(C)ccc3cc12	12%	7%
CCc1nc2ccccc2c(C(=O)NCc2ccccc2)c1C	7%	-6%
COCCNC(=O)c1c(CSc2ccc(F)cc2)noc1C(=O)NCc1ccccc1	-13%	-20%
CN(C)C(CNC(=O)c1oc2ccccc2c1CSc1ncn[nH]1)c1ccco1 (configuration not stated)	5%	-6%
Cc1cccc2cc(CN(Cc3ccc(F)cc3)C(=O)C(F)(F)F)c3nnnn3c12	-4%	-3%
COc1ccccc1NC(=O)N(C1CCCC1)C1CCN(C(C)=O)CC1	20%	1%
C=CCN=c1scc(-c2ccccc2)n1/N=C/c1ccccn1	0%&-28%	3%
COCCCn1c(-c2ccc(Cl)cc2)n[nH]c1=S	5%	-5%[0.501 µM]
COc1ccc(N2C(=O)c3ccccc3C2=O)cc1	1%	-10%
C/C(=N/NC(=O)c1ccc(-c2ccccc2)cc1)c1cccc(O)c1	13%	-3%
Cc1cccc(C)c1NC(=O)CNC(=O)c1c(C)nn(C)c1Cl	1%	-9%
O=C(CSc1nnc(SCc2ccc(Cl)cc2)s1)N/N=C/c1ccccc1C(=O)O	13%	-5%
COc1cc(C)c(NC(=O)C(=S)N2CCCC2)cc1C	-6%	2%
Cc1ccccc1CNC(=O)C(=O)NCC1CCCN1S(=O)(=O)c1ccccc1 (configuration not stated)	0%	-20%
COc1ccc(CC(=O)Oc2ccccc2C)cc1	0%	1%
